High-throughput results: PubChem BioAssay, National Center for Advancing Translational Sciences (NCATS)
GLA inh pH 4.5 = inhibitors of human alpha-galactosidase A at pH 4.5; P06280; AID 1467; 230,000 tested, under 10 active; purified enzyme, 4-MU-alpha-Gal fluorescence, pH 4.5; activity change, negative = inhibition, % at 105 µM; inconclusive = small, poorly fitted or top-dose-only inhibition, or a rising curve; inactive = flat fitted curve, though single readings scatter; no compound was filed as active;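 note: 0% = full activity with enzyme and -100% = basal without enzyme; dose as in the result columns while the protocol names 77 µM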
Rango complex inh = inhibitors of Rango-importin beta complex formation; Q14974; 340,000 compounds, 0.031% hits; Rango CFP/YFP FRET sensor + importin beta, 45 min; Potency, µM (doses to about 92.2 µM), inactives show at the highest dose inhibition of complex formation; active = rising FRET ratio curve, often small or poorly fitted; inconclusive = mostly compound fluorescence or quenching in the first reads; inactive = flat curves in all reads;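 note: potency is the fitted concentration of half-maximal effect; 0% = DMSO wells and 100% = buffer wells lacking importin beta; nearly all actives have a fitted effect of over 15% in size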
Target sequence (Q14974 whole entry, looked up): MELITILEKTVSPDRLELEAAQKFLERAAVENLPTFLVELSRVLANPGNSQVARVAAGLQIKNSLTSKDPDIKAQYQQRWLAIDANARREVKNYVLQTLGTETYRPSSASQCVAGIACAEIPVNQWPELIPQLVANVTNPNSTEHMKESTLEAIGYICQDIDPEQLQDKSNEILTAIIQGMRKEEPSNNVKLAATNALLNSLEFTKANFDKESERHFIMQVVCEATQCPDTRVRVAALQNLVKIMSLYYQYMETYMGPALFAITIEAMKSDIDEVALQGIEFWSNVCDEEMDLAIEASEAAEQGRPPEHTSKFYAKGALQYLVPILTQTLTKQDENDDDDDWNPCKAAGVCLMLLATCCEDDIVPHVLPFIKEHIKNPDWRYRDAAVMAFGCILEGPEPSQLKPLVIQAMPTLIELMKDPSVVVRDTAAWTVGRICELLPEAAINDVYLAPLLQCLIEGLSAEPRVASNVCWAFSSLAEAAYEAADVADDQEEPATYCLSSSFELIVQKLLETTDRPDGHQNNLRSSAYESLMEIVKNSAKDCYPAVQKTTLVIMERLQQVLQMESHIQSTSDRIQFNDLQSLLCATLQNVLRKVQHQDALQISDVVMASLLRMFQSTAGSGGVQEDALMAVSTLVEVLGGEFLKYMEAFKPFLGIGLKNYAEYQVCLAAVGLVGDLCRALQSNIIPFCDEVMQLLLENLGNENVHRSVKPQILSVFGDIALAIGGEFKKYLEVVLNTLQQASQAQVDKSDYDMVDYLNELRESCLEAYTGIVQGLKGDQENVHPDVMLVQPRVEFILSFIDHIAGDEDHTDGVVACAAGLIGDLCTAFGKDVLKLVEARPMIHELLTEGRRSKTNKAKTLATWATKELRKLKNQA
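Inhibition scored from the CFP 486 nm/YFP 530 nm FRET ratio 45 min after adding 0.125 microM importin beta to 50 nM Rango biosensor preincubated 5 min with compound (room temperature, PBS with DTT, Tween-20, BSA). No-importin wells as positive control.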
miR-21 reporter = raises the signal of a miR-21 reporter | AID 2288 | HeLa miR-21 FLuc reporter, luciferase, 48 h | 340,000 tested, under 10 active | Potency, µM (titrated, usually from 38.3 µM), without a hit: at the top dose reporter change, positive = more light; active = well fitted rising curve with a large enough effect; inconclusive = small, poorly fitted or top-dose-only effect; inactive = no such curve, though single readings can be large or run the other way;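 note: % of control where 0% means no effect; miR-21 action dims this reporter so a rising signal means less miR-21 action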
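HeLa miR-21-FLuc reporter line, endogenous miR-21; 2000 cells/well in DMEM/10% FBS; compound titration up to ~40uM final, 48 h, 37 degree Celsius; luciferase detection reagent, 15 min lysis, CCD luminescence.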
Rango dissoc inh = inhibition of RanGTP-driven Rango-importin beta dissociation | O95149+P62826 | 340,000 compounds, 0.071% hits | AID 540253 | Biochemical FRET Rango-importin beta, RanGTP-induced dissociation | Potency, µM (highest dose often 46.1 µM), for inactives: at the top dose activity change, negative = inhibition; active means falling FRET ratio curve, often poorly fitted, with flat reads before Ran was added; inconclusive means other falling curves, or compound fluorescence or quenching; inactive means flat or rising ratio curve;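 note: potency is the fitted concentration of half-maximal effect; % of control where 0% means no effect; nearly all actives have a fitted effect of over 45% in size; -100% = wells without RanGTP and RCC1; the record marks most hits as doubtful in a second field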
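Rango/importin beta premix (0.1/0.25 uM final), PBS + 1 mM DTT + 0.02% Tween-20 + 0.1% BSA; cpd 5 min RT; FRET pre-read; + RanGTP-RCC1 (0.6 uM Ran, 2 mM GTP, 0.2 uM RCC1); 45 min RT; FRET post-read, ex 430, em 486/530 nm.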
The depositor's hits bear a star; ? = inconclusive; · = not tested or not shown. This is a subset; count on the stated rates, not on these rows.

SMILES	GLA inh pH 4.5	Rango complex inh	miR-21 reporter	Rango dissoc inh
CCOC(=O)C1=NOC2COC3(CCN(c4ncccn4)CC3)OCC12 (stereo not drawn)	2	0.2%	0%	-6%
O=C(COC(=O)/C=C/c1ccc2c(c1)OCO2)NC1CCS(=O)(=O)C1 (stereo not drawn)	0	?	-3%	-21%
CCOC(=O)C1=C(C)NC(=O)NC1C1CC=CCC1 (stereo not drawn)	2	0.0%	1%	10%
Cc1cccc(NCc2nc(-c3ccccc3)no2)c1	1	1.3%	-26%	-1%
CC(CCc1ccccc1)NCc1ccc(Cl)cc1Cl (stereo not drawn)	·	-0.4%	5%	-12%
CCn1nnc(NC(=O)c2ccco2)n1	·	2.9%	-5%	-7%
COc1cc2c(cc1OC)C(c1ccc([N+](=O)[O-])cc1)N(C(C)=O)CC2 (stereo not drawn)	·	2.4%	-9%	2%
COCCCNc1nc2c(c(=O)[nH]c(=O)n2C)n1CC(O)COc1ccccc1C (stereo not drawn)	1	0.9%	-5%	1%
Cc1cc([N+](=O)[O-])nn1CC(=O)Nc1nc2ccccc2s1	-4	3.8%	-5%	-7%
COC(=O)c1ccc(Oc2cc(C)nc(-n3nc(C)cc3C)n2)cc1	5	1.9%	18%	3%
CCn1ccnc1CN(C)C(=O)C1CCC(=O)N(Cc2cccc(C(F)(F)F)c2)C1 (stereo not drawn)	·	0.2%	2%	5%
O=S(=O)(c1ccc2ccccc2c1)n1cccn1	·	1.3%	0%	-14%
O=[N+]([O-])c1cccc(S(=O)(=O)N2CCC(c3nc(-c4ccncc4)no3)CC2)c1	1	-5.8%	1%	1%
O=C(O)/C=C/C(=O)Nc1ccc(-n2nccc2C(F)(F)F)cc1	-3	-5.1%	-10%	-9%
CN(c1cccc(NC(=O)CN(c2ccc(C34CC5CC(CC(C5)C3)C4)cc2)S(C)(=O)=O)c1)S(C)(=O)=O	-2	-0.3%	30%	-1%
O=C(NCc1cccnc1)C1CCN(S(=O)(=O)c2cc(Cl)ccc2Cl)CC1	·	1.8%	15%	?
COc1ccc(S(=O)(=O)N2CCOC23CCN(S(C)(=O)=O)CC3)cc1	·	-0.4%	·	29%
COc1ccc(C2CC(c3ccccc3)=NN2C(=O)COC(=O)/C=C/c2ccc(O)c(OC)c2)cc1 (stereo not drawn)	-9	-4.5%	1%	0%
COc1cccc(C(=O)NC(Cc2ccccc2)c2ccc3c(c2)OCCCO3)c1 (stereo not drawn)	-2	2.8%	-7%	-9%
O=C(COC(=O)C1CC(O)CN1C(=O)Oc1ccccc1)c1ccc(Br)cc1 (stereo not drawn)	3	0.5%	-4%	-7%
CC(C)CNS(=O)(=O)c1ccc(CCC(=O)NCC2CCCO2)cc1 (stereo not drawn)	-1	-0.3%	-2%	-9%
CSc1nc(/C=C2\C=Nc3ccccc32)c(O)n1C	-12	?	-35%	?
Cc1sc2nc(C)n(/N=C/c3ccc(O)cc3)c(=O)c2c1C	6	-1.7%	-1%	-8%
CCOc1ccc(C(=O)NNC(=O)CCNC(=O)c2ccco2)cc1OC	·	-0.5%	·	-16%
CCSc1nnc(NC(=O)C2CC(=O)N(Cc3ccccc3)C2)s1 (stereo not drawn)	-4	0.4%	-2%	-11%

Further results.
SMILES	GLA inh pH 4.5	Rango complex inh	miR-21 reporter	Rango dissoc inh
CCOC(=O)N1CCN(Cc2nnc(-c3cccc(Br)c3)o2)CC1	·	4.4%	0%	4%
CCOc1cc(-c2cn(S(=O)(=O)c3cccc4nsnc34)nc2N)cc(OCC)c1OCC	12	0.2%	-10%	-5%
Cc1occc1C(=O)N/N=C/c1cccnc1	3	0.0%	-29%	-7%
CC(C)(C)OC(=O)C[C@@H]1C/C=C\C[C@@H](CC(=O)N(CCO)Cc2ccccc2)C(=O)N2CCC[C@@H]2COC1=O	·	2.1%	·	-25%
O=S(=O)(Nc1cccc(-n2cnnn2)c1)c1cccc(Cl)c1	·	-0.3%	-6%	-9%
CCOC(=O)C1=C(CNC2CCCCC2)NC(=O)NC1c1cc(C)ccc1C (stereo not drawn)	2	0.6%	-1%	5%
O=C1Nc2ccccc2C12OCC(COc1ccc(Cl)cc1)O2 (stereo not drawn)	-4	3.6%	-8%	1%
Cc1cc(N2CCCC2)nc(N2C3CCC2CC(O)(c2ccc(F)cc2)C3)n1 (stereo not drawn)	-3	·	22%	·
CN(CC(=O)Nc1c(Cl)cccc1Cl)C(=O)CNC(=O)c1ccc2ccccc2c1	·	-3.5%	·	-21%
COc1cc(/C=N/Nc2cccc3cccnc23)cc(OC)c1O	-20	?	-29%	?
COc1ccc(CCNC(=O)c2ccco2)cc1	-4	-2.3%	-33%	-3%
CCOc1ccc(OCC)c(NC(=O)CN(C)S(=O)(=O)c2ccc3nc(C)sc3c2)c1	-17	-0.8%	0%	5%
CC(C)CC(=O)NCc1ccc2[nH]c3c(c2c1)CCCC3	6	?	9%	?
O=C(c1ccccc1F)N1CCN(CC2CC3C=CC2C3)CC1 (stereo not drawn)	-5	1.7%	-2%	-3%
CCOC(=O)Cc1csc(SCC(=O)Nc2ccc(C)cc2F)n1	·	-3.5%	·	-16%
Cc1ccc2oc(=O)c3cnn(CC(=O)N(Cc4ccco4)C4CCCCC4)c3c2c1	-10	3.4%	0%	4%
O=C(CCCn1c(=S)[nH]c2ccccc2c1=O)NCCSCc1ccccc1	-4	?	2%	-14%
CCOc1ccc(N(CC(=O)Nc2ccc(C)c(C)c2)S(C)(=O)=O)cc1	·	-5.7%	-51%	-4%
Cc1ccc(C)c(N(C(=O)Cn2nnc3ccccc32)C(C(=O)NCc2ccco2)c2ccncc2)c1 (stereo not drawn)	-14	0.2%	-2%	1%
S=c1[nH]c2cc(Cl)c3cccnc3c2o1	·	-0.9%	-10%	-14%
CCOc1ccc(NC(=S)N2CCN(S(=O)(=O)c3ccccc3)CC2)cc1	·	0.2%	-2%	-19%
CC(=O)Nc1ccc(S(=O)(=O)NNC(=O)c2ccc(S(=O)(=O)N3CCCCC3)cc2)cc1	5	0.1%	-2%	-1%
OCOCCCn1c(C2CCCN2c2nc(-c3ccc(F)cc3)cs2)nc2cc(Cl)c(N3CCCCC3)cc21 (stereo not drawn)	·	-0.1%	·	-1%
O=C(c1cccc(S(=O)(=O)N2CCCCC2)c1)N1CCN(S(=O)(=O)c2ccc(F)cc2)CC1	-4	-1.0%	-6%	9%
COc1ccccc1NC(=O)C(=O)N(c1cccnc1)C(C(=O)NC(C)(C)C)c1ccccc1 (stereo not drawn)	6	-0.6%	-4%	-4%

Next section
SMILES	GLA inh pH 4.5	Rango complex inh	miR-21 reporter	Rango dissoc inh
Cc1nnc(-c2ccc(Cl)cc2)nc1NCCN(C)C	5	0.9%	-16%	-17%
CCCNC(=O)CCc1c(C)nc2nc(C)nn2c1C	5	3.3%	0%	1%
COc1ccc(CCNC(=O)c2ccc(=O)[nH]c2)cc1OC	·	-0.5%	-4%	1%
COc1ccc(NC(=O)C(=O)N/N=C(\C)CC(=O)Nc2ccccn2)c(OC)c1	-1	0.0%	3%	7%
CC1(C)CC(N(Cc2cccs2)C(=O)c2ccco2)CCO1 (stereo not drawn)	-7	-1.3%	-7%	-2%
COc1cc2nc(Cl)nc(N3CCOCC3)c2cc1OC	1	0.6%	-2%	-4%
CCN(CC)S(=O)(=O)c1cc(NC(=O)CCCOc2ccc(C(C)=O)cc2)ccc1C	2	0.9%	16%	8%
O=C(CCCCCN1C(=O)c2cccc3cccc(c23)C1=O)NCc1cccnc1	-14	-0.1%	3%	-9%
Cc1ccccc1-c1n[nH]c(=S)n1/N=C/C=C/c1ccco1	-5	?	0%	?
Cc1cc(NC(=O)c2ccc(COc3ccc(Cl)c(C)c3)o2)no1	6	3.6%	-7%	3%
Cn1cc(Br)c(NS(=O)(=O)c2ccc(Cl)s2)n1	4	0.0%	-9%	-7%
O=C(COC(=O)C1=Cc2ccccc2OC1)NCc1ccc(F)cc1	·	?	·	?
CC(=O)CSc1ncnc2nc[nH]c12	7	3.2%	-4%	3%
CC(OC(=O)/C=C/c1cccs1)C(=O)Nc1ccc(C(N)=O)cc1 (stereo not drawn)	·	5.3%	·	10%
CCCCS(=O)CC(COCc1ccccc1)OC(=O)CSc1nc(C)cc(C)n1 (stereo not drawn)	6	0.8%	-2%	-25%
COC(=O)c1scc(C)c1N/N=C(\C)c1ccc(F)cc1F	-1	2.3%	-5%	-3%
O=C(CNc1ccccc1F)Nc1cccc(S(=O)(=O)N2CCCCC2)c1	·	0.9%	·	-6%
CCC1CCCCN1CCCNC(=O)C1CCC(=O)N1Cc1ccc(C)cc1 (stereo not drawn)	7	-1.3%	-2%	3%
CCN(CC)C(=O)C1CCCN(Cc2ccc(OC)c(C)c2)C1 (stereo not drawn)	11	2.8%	-1%	-1%
COc1ccc(C)cc1N(C(=O)Cn1nnc(-c2ccc(C)o2)n1)C(C(=O)NC1CCCC1)c1ccncc1 (stereo not drawn)	·	?	-2%	16%
COc1ccccc1OC(=O)CCc1nc2ccccc2s1	-4	0.3%	-8%	-12%
Cc1ccc(/C=N/NC(=O)c2nnn(-c3nonc3N)c2CSc2ccc(Cl)cc2)cc1	8	6.2%	-1%	15%
COc1cc(Cl)ccc1OCc1cc(C(=O)NCC(C)(C)N2CCOCC2)no1	·	3.0%	-28%	1%
N#CC1(Nc2ccc(C(=O)O)cc2)CCCC1	·	4.7%	·	0%
CSc1nnc(C(C)(C)C)c(=O)n1/N=C/c1c(O)ccc2ccccc12	-2	?	-2%	-7%

Quoted from the listing for reference:
SMILES	GLA inh pH 4.5	Rango complex inh	miR-21 reporter	Rango dissoc inh
Cc1nnc(-c2ccc(Cl)cc2)nc1NCCN(C)C	5	0.9%	-16%	-17%
CCCNC(=O)CCc1c(C)nc2nc(C)nn2c1C	5	3.3%	0%	1%
COc1ccc(CCNC(=O)c2ccc(=O)[nH]c2)cc1OC	·	-0.5%	-4%	1%
COc1ccc(NC(=O)C(=O)N/N=C(\C)CC(=O)Nc2ccccn2)c(OC)c1	-1	0.0%	3%	7%
CC1(C)CC(N(Cc2cccs2)C(=O)c2ccco2)CCO1 (stereo not drawn)	-7	-1.3%	-7%	-2%
COc1cc2nc(Cl)nc(N3CCOCC3)c2cc1OC	1	0.6%	-2%	-4%

Further results:
SMILES	GLA inh pH 4.5	Rango complex inh	miR-21 reporter	Rango dissoc inh
COc1cc(OC)c(N(C)S(=O)(=O)c2cccc(C(=O)NC(C)C3CC4CCC3C4)c2)cc1Cl (stereo not drawn)	4	-1.6%	1%	0%
O=C(CN1C(=O)CCS(=O)(=O)c2ccccc21)Nc1ccc(F)cc1	·	3.4%	-3%	-12%
Nc1nc(CCOc2ccc(F)cc2)cs1	3	5.1%	-30%	-2%
CCCCn1c(N)c(-c2nc3ccccc3o2)c2c([N+](=O)[O-])nn(CC)c(=O)c21	-3	-2.5%	-8%	0%
COc1ccc(Cl)cc1C(=O)NNC(=O)COC(=O)CC(NC(C)=O)c1ccccc1 (stereo not drawn)	·	1.9%	·	2%
COc1ccc(S(=O)(=O)Nc2cc(C(C)C)c(O)cc2C)cc1	-6	-3.0%	-2%	10%
Cc1ccnc(NC(=O)CS(=O)(=O)c2ccccc2)c1	·	-1.6%	-30%	-2%
O=C(COC(=O)CNC(=O)C1CCCCC1)Nc1ccccc1	·	5.3%	·	-25%
CCN(CC(=O)Nc1ccc(NC(C)=O)cc1)C(=O)CSCC(=O)Nc1ccc(C)cc1	·	0.9%	·	17%
O=C(NC(=O)c1ccccc1)Nc1ccccc1	·	2.7%	-25%	15%
COc1ccc(C(CNC(=O)c2ccc(S(=O)(=O)Nc3ccccc3F)cc2)N(C)C)cc1 (stereo not drawn)	·	0.0%	1%	-19%
Cn1c(=O)oc2cc(S(=O)(=O)Nc3ccc(F)cc3)ccc21	·	0.4%	1%	10%
COc1ccc(C(=O)Oc2c(C)occc2=O)cc1OC	1	1.0%	-13%	16%
NC(N)=NCCCS(=O)(=O)Nc1ccc(Nc2c3ccccc3nc3cc([N+](=O)[O-])ccc23)cc1	·	-0.2%	·	1%
COc1ccc(-c2nc(CS(=O)CC(=O)NCc3ccc(Cl)cc3)c(C)o2)cc1OC (stereo not drawn)	·	-0.6%	-6%	-7%
